CtBP-E1A blk: inhibitors of CtBP/E1A interaction; AlphaScreen GST-E1A/His-CtBP binding, 1536-well; active compounds read low; control for the full effect not named in the record; activity change, % (test concentration not listed); actives 0.49% (n = 340,000); AID 651724; in the data active means activity change below about -65%; inconclusive means about -30% to -65%; inactive means above about -30%; also: % is scaled to controls: 0 for no effect and ±100 for the full control effect
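AlphaScreen with 125 nM GST-E1A and 125 nM His-CtBP (5X stocks) in Tris pH 8.0, 300 mM NaCl, BSA, Tween 20, TCEP. Compounds preincubated 2 h at 37 deg C, then glutathione donor/nickel acceptor beads added for 1 h at 37 deg C in dark.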
TRPML1 agonist: human mucolipin-1 channel agonism | TRPML1-expressing cells, Ca2+ dye fluorescence, FDSS; host cell line not named in the record; reference of the full effect not given here | AID 624414 | Q9GZU1 | actives 0.12% (n = 410,000) | activation, % (concentration not given with the values); in the data active = activation above about 50%; inconclusive = about 30% to 50%; inactive = below about 30%; also: 0% is about no effect; the text of the record puts the active cut at 80%
Target sequence (Q9GZU1 whole entry, looked up): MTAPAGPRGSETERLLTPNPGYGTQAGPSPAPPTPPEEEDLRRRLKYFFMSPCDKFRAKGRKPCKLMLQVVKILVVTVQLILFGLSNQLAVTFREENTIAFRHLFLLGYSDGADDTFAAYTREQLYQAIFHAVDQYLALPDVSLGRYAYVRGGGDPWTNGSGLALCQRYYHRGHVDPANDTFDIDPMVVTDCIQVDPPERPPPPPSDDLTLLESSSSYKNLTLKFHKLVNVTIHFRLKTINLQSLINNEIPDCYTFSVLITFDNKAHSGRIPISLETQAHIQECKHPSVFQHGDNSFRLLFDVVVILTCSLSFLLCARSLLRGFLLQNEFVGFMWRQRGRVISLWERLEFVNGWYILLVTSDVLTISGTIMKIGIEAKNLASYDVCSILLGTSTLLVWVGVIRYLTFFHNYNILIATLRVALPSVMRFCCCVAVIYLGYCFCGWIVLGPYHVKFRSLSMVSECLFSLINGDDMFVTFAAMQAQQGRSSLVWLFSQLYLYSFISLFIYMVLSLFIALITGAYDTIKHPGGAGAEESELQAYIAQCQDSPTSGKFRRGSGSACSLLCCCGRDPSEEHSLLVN
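Calcium fluorescence on an FDSS kinetic reader gave the read-out. Tet-induced TRPML1-DL cells were plated overnight, dye-loaded (Ca8 with quencher, 45-90 min, room temperature, dark), then read 110 s after compound addition, and again 110 s after 4uM final 54-4 (EC80).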
PINK1 expr mod: modulators of PINK1 expression | AID 624263 | Potency, µM (series often up to 76.6 µM), without a hit: top-dose activation (PINK1 increase), actives largely listed as activators | PINK1 immunofluorescence, high-content cytometry, 24 h | actives 0.2% (n = 410,000); active = well fitted activation curve with a large enough effect; inconclusive = small, poorly fitted or top-dose-only effect; inactive = flat fitted curve, though single readings scatter; cell line not stated here;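 also: potency is read from the fitted curve at half-maximal effect; % of control where 0% means no effect; nearly all actives have a fitted effect of over 65% in size; a mitochondrial uncoupler was the plate control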
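PINK1 protein level read as immunofluorescence by microplate cytometer in a fixed, stained stable cell line after 24 h exposure to five compound concentrations, with CCCP as control.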
Six1-Eya2 inh: Six1/Eya2 interaction inhibition. AlphaScreen GST-Six1/His-Eya2 binding, biochemical; active compounds read low; control for the full effect not named in the record. actives 0.56% (n = 360,000). activity change, % (test concentration not listed). Q15475+O00167. AID 651725; in the data active = activity change below about -65%; inconclusive = about -30% to -65%; inactive = above about -30%; also: % is scaled to controls: 0 for no effect and ±100 for the full control effect
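Homogeneous AlphaScreen proximity assay pairing GST-Six1 with His-tagged Eya2 (added as 5X mix: 250 nM and 500 nM) in 50 mM Tris pH 8.0, 300 mM NaCl, 1 mM TCEP. Glutathione donor and nickel acceptor beads; 1 h, 37 °C, dark.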
TRPML1 inh: blocks the human TRPML1 channel. TRPML1-inducible cells, Ca2+ dye fluorescence, FDSS; active compounds read low; inhibition of EC80 agonist-evoked calcium signal. activity change, negative = inhibition, % (no concentration beside the values). actives 0.02% (n = 390,000); in the data active means activity change below about -50%; inconclusive means about -30% to -50%; inactive means above about -30%;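 also: stimulus is agonist 54-4 at its EC80 concentration; % is scaled to controls: 0 for no effect and ±100 for the full control effect; compound concentration not given in the record; the text of the record puts the active cut at -80%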
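Tet-induced TRPML1-DL cells loaded with Ca8 no-wash calcium dye were read kinetically on FDSS. Compound addition was followed by EC80 agonist 54-4 (4 uM final); inhibition was read over 110 s.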
D2 agonist: human D2 receptor agonism in beta-arrestin assay; actives 0.084% (n = 360,000); P14416; DiscoveRx PathHunter D2 beta-arrestin, luminescence, 90 min; 100% = 57 uM dopamine signal; activation, % (test concentration not listed); AID 624465; in the data active = activation above about 40%; inconclusive = about 15% to 40%; inactive = below about 15%; also: compound concentration not given in the record; the text of the record calls up to 30% inactive
Target sequence (P14416 whole entry, looked up): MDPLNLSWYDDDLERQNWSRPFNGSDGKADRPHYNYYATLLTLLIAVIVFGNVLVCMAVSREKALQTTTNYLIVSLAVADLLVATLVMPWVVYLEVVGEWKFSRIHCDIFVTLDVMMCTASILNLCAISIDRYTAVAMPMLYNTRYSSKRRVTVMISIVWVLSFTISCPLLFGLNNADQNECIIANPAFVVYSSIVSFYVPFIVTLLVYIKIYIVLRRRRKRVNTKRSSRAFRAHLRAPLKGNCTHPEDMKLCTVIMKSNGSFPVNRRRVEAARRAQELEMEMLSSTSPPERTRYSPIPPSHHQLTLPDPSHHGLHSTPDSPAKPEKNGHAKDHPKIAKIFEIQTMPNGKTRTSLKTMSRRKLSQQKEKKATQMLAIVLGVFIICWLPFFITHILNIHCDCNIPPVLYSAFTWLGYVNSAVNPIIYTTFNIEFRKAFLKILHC
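Agonist mode: compounds alone added to overnight-plated D2 PathHunter cells for 90 min at 37 C, with 57 uM final dopamine (EC100) defining full response. Beta-arrestin recruitment detected by chemiluminescent reagent, read after 1 h at ambient temperature.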
* marks the source's active call; other numbers are inactive results; ? = inconclusive; · = not tested or not shown; & = joins results of further samples; [ ] = another dose, or the depositor's remark. No enrichment for hits. About 1% of those tested had a hit in this group.

molecule,CtBP-E1A blk,TRPML1 agonist,PINK1 expr mod,Six1-Eya2 inh,TRPML1 inh,D2 agonist
NC(=S)c1ccc(OCCCc2ccccc2)cc1,2,0.2,-0.9%,-9,7,-13
CCOC(=O)Cn1c(Br)nc2c1c(=O)[nH]c(=O)n2C,-27,-0.1,·,-17,-13,-3.4
O=c1[nH]c(C2CCN(S(=O)(=O)c3ccccc3F)CC2)nc2c1nnn2Cc1ccc2c(c1)OCCO2,·,1.5,0.4%,-12,-18,-0.5
O=C(c1ccc(NC(=S)Nc2ccc(F)cc2F)cc1)N1CCOCC1,·,2.4,-1.1%,4,-12,-0.9
CCN1C(=O)N(CN2CCOCC2)C2C1N(CN1CCOCC1)C(=O)N2CC (stereo unspecified),11,0.7,3.8%,4,-30,-3.1
N#Cc1cnn(-c2ccc([N+](=O)[O-])cc2[N+](=O)[O-])c1N,2,-0.3,0.4%,0,-5,4.4
CCN(CC)CCn1c(O)c(N=O)c2ccccc21,2,0.4,7.3%[38.3 µM],3,12,-3.3
COc1ccc(NC(=O)Cn2c(=O)n(-c3cccc(C)c3)c(=O)c3c2c2cc(C)ccc2n3C)cc1Cl,·,0.9,2.8%,·,-12,·
CC(C)Cn1c(N)c(C(=O)COC(=O)c2c(F)cccc2F)c(=O)n(C)c1=O,0,4.1,1.6%,1,-10,-6.3
CCOC(=O)c1ccc(NC(=O)c2cn(CCC#N)nc2-c2ccc3c(c2)OCCO3)cc1,0,1.2,-0.4%,-14,-5,-1.5
CC(C)CN1C(=O)c2ccc(C(=O)Nc3nccs3)cc2C1=O,-1,-0.5,-2.0%,16,-7,-1.2
CCCCCCCCCCCCOC(=O)C[N+](C)(C)C,4,0.2,0.4%,4,-16,-1.8
O=S(=O)(c1cccc(-c2cn3cccnc3n2)c1)N1CCCCCC1,-13,-0.4,3.3%,-17,-6,-0.6
COc1ccc([C@H]2Oc3cc(O)cc(O)c3C(=O)C2[C@@H]2C(=O)c3c(O)cc(O)cc3O[C@@H]2c2ccc(OC)cc2)cc1 (stereo partly specified),-10,0.2,-0.6%,-10,10,-3.0
COc1ccc(-c2csc(C(O)c3ccc(F)c(OC)c3)n2)cc1 (stereo unspecified),-5,-0.6,5.6%,0,·,5.5

Grouped by structure, the compounds so far with fluorine
molecule,CtBP-E1A blk,TRPML1 agonist,PINK1 expr mod,Six1-Eya2 inh,TRPML1 inh,D2 agonist
O=c1[nH]c(C2CCN(S(=O)(=O)c3ccccc3F)CC2)nc2c1nnn2Cc1ccc2c(c1)OCCO2,·,1.5,0.4%,-12,-18,-0.5
O=C(c1ccc(NC(=S)Nc2ccc(F)cc2F)cc1)N1CCOCC1,·,2.4,-1.1%,4,-12,-0.9
CC(C)Cn1c(N)c(C(=O)COC(=O)c2c(F)cccc2F)c(=O)n(C)c1=O,0,4.1,1.6%,1,-10,-6.3
COc1ccc(-c2csc(C(O)c3ccc(F)c(OC)c3)n2)cc1 (stereo unspecified),-5,-0.6,5.6%,0,·,5.5

More entries
molecule,CtBP-E1A blk,TRPML1 agonist,PINK1 expr mod,Six1-Eya2 inh,TRPML1 inh,D2 agonist
CCOc1ccccc1NC(=O)c1sc2nc(C)nc(N3CCOCC3)c2c1C,19,-1.1,1.2%,2,5,-4.4
CCCn1c(=N)c(S(=O)(=O)c2ccc(F)cc2)cc2c(=O)n3cccc(C)c3nc21,3,-0.2,1.0%,2,-8,-1.3
Cc1cc(C)cc(-n2c(SCC(=O)NCc3ccco3)nc3c([nH]c4ccccc43)c2=O)c1,·,1.8,4.4%,·,1,·
O=C(COc1ccccc1)N1CCc2ccccc2C1,11,0.1,-0.8%,0,10,-3.2
Cc1ccccc1N(CC(=O)NC1CCCC1)C(=O)c1oc(C(C)(C)C)cc1C,-1,70*,·,-11,-16,-4.7
NC(=S)NNC(=O)c1ccccc1Cl,-12,3.5,0.9%,6,0,-3.6
COCCCn1c(-c2ccc(S(=O)(=O)N3CCOCC3)cc2)csc1=Nc1ccccc1,-7,1.2&0.0,-1.3%&14%,-9,19&-4,-2.8
COc1ccc(Cl)cc1S(=O)(=O)N1CCN(C(=O)c2cc(OC)c(OC)c(OC)c2)CC1,-2,0.3,0.9%,1,-22,-1.8
O=C(CN1CCN(c2ccc(F)cc2)CC1)Nc1ccccc1[N+](=O)[O-],-2,-1.2,1.1%,-9,-10,-2.5
O=C1NC(c2ccncc2)Nc2ccccc21 (stereo unspecified),6,-0.3,2.9%,-2,-11,-3.2
O=C(c1ccc(N2CCN(S(=O)(=O)c3ccccc3)CC2)c([N+](=O)[O-])c1)N1CCOCC1,-23,0.1,-1.1%,-6,6,-5.0
O=C(OCN1C(=O)c2ccccc2C1=O)c1cccs1,-1,-1.4,0.7%,-2,-9,-3.4
COc1ccc(-c2nc3ccccc3s2)cc1NC(=O)COc1ccc(C)cc1,·,0.7,2.5%,·,5,·
COc1cc(NC(=O)Cn2cnc3sc(C)c(S(=O)(=O)N4CCC(C)CC4)c3c2=O)cc(OC)c1OC,·,-0.6,2.9%,·,19,·
C/C(=N\NC(=O)c1ccc(N/N=C(\C)c2ccncc2)cc1)c1ccncc1,-7,-1.2,11%,-2,-7,3.1
CC1(C(=O)NC2CCCC2)CCC(=O)N1C1CCN(Cc2ccccc2)CC1 (stereo unspecified),6,-0.8,2.1%,11,·,-0.8
O=C(CCCc1c[nH]c2ccccc12)Nc1ccc(S(=O)(=O)Nc2ncccn2)cc1,1,0.9,-0.3%,-1,8,0.8
COc1cccc(/C=N/Nc2nc3ccccc3n3cnnc23)c1,?,0.3,?,?,6,-4.7
CCOC(=O)C1(CCc2ccccc2)CCN(C(=O)c2cc(C)nc(C)n2)CC1,6,1.3,-0.8%,2,-8,-3.5
COc1ccc(OC)c(-c2nc(C(N)=O)c3c(n2)n(-c2ccc4c(c2)OCO4)c(=O)n3C)c1,·,1.9,-1.3%,·,6,·
COc1ccc([N+](=O)[O-])cc1NC1CCCCC1,35,1.5,3.1%,25,3,-7.1
Cc1ccc(CNC(=O)CCCCn2c(=O)c3ccccc3n(Cc3ccc(C)cc3)c2=O)cc1,·,0.6,0.9%,·,6,·
COc1ccc(OC)c(NC(=O)C2CC(=O)n3ncnc3N2)c1 (stereo unspecified),-3,0.0,-3.0%,0,-9,0.4
CCCC(=O)Nc1nc2ccc(NC(=O)c3c(F)c(F)c(OC)c(F)c3F)cc2s1,6,·,7.8%,-1,·,-4.6
Nc1cc(Oc2cccnc2)cc([N+](=O)[O-])c1,0,0.1,1.0%,0,-4,3.1
CCOC(=O)c1ccc(Nc2nc3ccccc3nc2NS(=O)(=O)c2ccc(Cl)cc2)cc1,·,0.5,0.9%,·,6,·
CN1CCN(C(=S)Nc2ccccc2Cl)CC1,0,0.1,3.0%,-5,13,-3.4
COc1ccc([N+](=O)[O-])cc1N(CC(O)CN(CC(C)C)CC(C)C)S(=O)(=O)c1ccc(C)cc1 (stereo unspecified),-10,0.4,0.3%,-21,61,-2.7
CCCCn1c(N)c(N(CCOC)C(=O)CSCc2ccccc2C)c(=O)[nH]c1=O,2,0.7,-2.3%,1,54,-0.9
COc1ccc(C(=O)NNC(=O)CSc2nnc(-c3ccc(O)cc3)n2C)cc1,-9,-0.4,-0.5%,-5,4,0.4
O=C(Nc1cccc(NS(=O)(=O)c2ccc(S(=O)(=O)NC3CC3)cc2)c1)c1ccccn1,-2,-0.3,-1.2%,-9,-8,-4.2
COc1ccc(S(=O)(=O)N(CC(=O)NC2CC2)c2ccc(C)cc2)cc1OC,0,-0.9,-1.4%,5,-8,-2.3
O=C(NCCc1ccc2c(c1)OCCO2)c1ccc([N+](=O)[O-])cc1Cl,·,0.4,-2.4%,-4,-5,13
CCN(CC)c1cc(C)c2cc(NC(=O)CNC(C)=O)ccc2n1,2,-0.5,1.7%,0,2,-3.3
Cc1cccc(Cn2cc(SCC(=O)Nc3nccs3)c3ccccc32)c1,-9,1.5,13%,3,-5,-0.4
CCN1C(=O)N(S(=O)(=O)C(F)(F)F)[C@@H](c2ccccc2)C(C(=O)OC)=C1C,0,1.7,0.9%,3,-22,-0.9
COc1ccc(C(=O)NCC[N+](C)(C)C)cc1,-4,0.0,1.0%,1,·,·
CCCCN(C(=O)NC(=O)Nc1ccccc1C)S(C)(=O)=O,-1,-0.5,0.7%,4,18,-1.8
CC(=O)Nc1ccc(OCC(=O)N2CCC(Cc3ccccc3)CC2)cc1,1,-0.3,1.6%,-5,-1,5.0
O=C(O)c1cc(NC(=O)c2ccc(Br)cc2)cc(NC(=O)c2ccc(Br)cc2)c1,·,-1.1,-1.3%,-2,20,-3.4
O=C(O)COc1ccc(/C=C/c2nc3ccc([N+](=O)[O-])cc3s2)cc1,2,·,-0.3%,-1,·,-3.0
COC(=O)C1C(c2ccc(Br)cc2)Nc2nnc(C(F)(F)F)n2C1(C)O (stereo unspecified),30,1.7,0.4%,-1,-7,0.0
COCCn1c(SCC(=O)N(C(C)C)C(C)C)nnc1-c1cc2ccccc2cc1O,-4,-0.8,-9.0%[38.3 µM],0,11,-1.9
C=CCn1c(=O)n2ncnc2c2c3c(sc21)CCCC3,-20,1.6,1.2%,-24,60,1.3
CCOC(=O)N1CCC(NC(=O)c2cc3c(-c4cccc(OC)c4)nn(C)c3s2)CC1,?,1.0,1.6%,-20,3,-1.8
COc1cccc(C(=O)Nc2ccccc2-c2nc(-c3ccc(C)cc3)no2)c1,·,0.0,0.5%,·,2,·
O=C(CSc1n[nH]c(-c2ccc(Br)cc2)n1)NC1CCCC1,-1,3.1,?,-6,-26,9.3
O=C(CSc1nc2ccccc2s1)N/N=C/c1cc([N+](=O)[O-])ccc1O,-68*,-0.2,0.7%,?,2,-8.3
Cc1ccc(OC(=O)Cn2c(C(F)(F)F)nc3ccccc32)cc1,4,3.4,1.7%,9,24,-4.5
CSc1ccccc1NC(=O)C1CCCO1 (stereo unspecified),3,0.2,5.2%[38.3 µM],3,-7,-1.2
Cc1ccc(Cn2c(C3CCCN3c3nc(-c4ccc(F)cc4)cs3)nc3cc(Cl)c(Cl)cc32)cc1 (stereo unspecified),·,0.1,0.6%,-7,22,-0.6
O=C(Nc1ccc2ccccc2n1)c1ccccc1Cl,-16,2.4,1.9%,-9,2,7.6
Cc1ccc(S(=O)(=O)N2CCC(=O)N(CCOCc3cccc(Cl)c3)CC2)cc1,·,0.4,2.7%,5,24,-1.1
COCC(=O)N(Cc1cc2ccc(C)cc2[nH]c1=O)c1ccc(OC)cc1,2,0.4,-2.1%[38.3 µM],2,-4,0.2

Compound activity as filed in PubChem.
